# High-throughput results deposited in PubChem by National Center for Advancing Translational Sciences (NCATS).
# hNpr1 antagonist: human Npr1 receptor antagonism. HEK293 hNpr1 GloSensor cGMP, ANP-stimulated luminescence. Potency, µM (highest dose often 46.3 µM), inactives show at the top dose activity change, negative = inhibition, most hits filed as inhibitors. P16066. actives 1.6% (n = 76,000); active = well fitted inhibition curve with a large enough effect; inconclusive = small, poorly fitted or top-dose-only effect; inactive = no such curve, though single readings can be large or run the other way;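 note: nearly all actives have a fitted effect of over 60% in size; nearly all hits also lower the signal before the agonist is added; a reference antagonist and vehicle were the controls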
# Target sequence (P16066 whole entry, looked up): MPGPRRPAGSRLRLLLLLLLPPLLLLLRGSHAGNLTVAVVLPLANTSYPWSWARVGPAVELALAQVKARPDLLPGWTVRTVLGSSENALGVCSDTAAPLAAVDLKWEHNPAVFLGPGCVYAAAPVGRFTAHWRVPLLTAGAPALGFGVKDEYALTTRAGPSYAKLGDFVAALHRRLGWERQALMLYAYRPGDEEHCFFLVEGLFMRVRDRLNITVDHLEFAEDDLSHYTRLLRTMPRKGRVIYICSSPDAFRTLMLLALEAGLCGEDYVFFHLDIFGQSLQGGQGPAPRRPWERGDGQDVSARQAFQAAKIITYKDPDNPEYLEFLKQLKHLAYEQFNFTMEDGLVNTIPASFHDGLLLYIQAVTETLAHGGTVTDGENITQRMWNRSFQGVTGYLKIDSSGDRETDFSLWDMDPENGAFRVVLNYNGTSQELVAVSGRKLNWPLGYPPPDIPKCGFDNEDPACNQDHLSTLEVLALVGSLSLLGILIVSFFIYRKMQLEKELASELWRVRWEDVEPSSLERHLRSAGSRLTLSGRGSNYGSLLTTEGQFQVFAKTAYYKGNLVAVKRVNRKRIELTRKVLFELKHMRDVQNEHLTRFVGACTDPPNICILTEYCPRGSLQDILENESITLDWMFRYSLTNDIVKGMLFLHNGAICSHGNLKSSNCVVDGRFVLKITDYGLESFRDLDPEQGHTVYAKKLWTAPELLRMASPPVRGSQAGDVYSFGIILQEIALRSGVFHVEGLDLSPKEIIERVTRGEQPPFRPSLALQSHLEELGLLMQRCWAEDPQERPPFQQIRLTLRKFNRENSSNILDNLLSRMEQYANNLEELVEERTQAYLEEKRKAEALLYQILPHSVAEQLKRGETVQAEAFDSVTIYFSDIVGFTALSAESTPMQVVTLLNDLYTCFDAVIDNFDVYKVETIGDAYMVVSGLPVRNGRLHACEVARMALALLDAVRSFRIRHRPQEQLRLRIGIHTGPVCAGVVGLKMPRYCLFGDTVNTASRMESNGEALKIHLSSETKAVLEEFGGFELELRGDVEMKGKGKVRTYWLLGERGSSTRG
#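 Compound pre-incubated 30 min at room temperature on GloSensor-loaded HEK293 cells stably carrying hNpr1 and the pGS-40F cGMP biosensor. Stimulation uses hNppA at 0.1 nM final; luminescence is taken at baseline and 20 min post-agonist.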
# An asterisk follows results filed as active; ? = inconclusive; [ ] = another dose, or the depositor's remark. % is set by controls: 0 for no effect and ±100 for the full control effect; potency is the fitted concentration of half-maximal effect. Only part of the results is shown. The share of hits here may be higher or lower than overall.
hNpr1 antagonist | compound
3.2% | OCC1CN(c2ncccn2)CC12CCN(Cc1cccc(Cl)c1F)CC2 (centres undefined)
10µM* | CCNC(=O)N[C@@H]1C=C[C@@H](c2c(C)nn(-c3ccc(OC)cc3)c2C)C1
-3.8% | COc1cccc(CNC(=O)CCNc2cnc3cnccn23)c1
2.1% | NC(=O)c1cccnc1N1CCC(Oc2ccc(Cl)cc2)(C(=O)O)CC1
4.5% | CCN(Cc1ccccc1)C(=O)C1CCCN(C2CCN(C(=O)C3CC3)CC2)C1 (centres undefined)
0.0% | Cc1ccc2c(C)c(C(=O)N3C[C@@H](NS(C)(=O)=O)[C@H](C(C)C)C3)oc2c1
-2.1% | CCCn1c(C)cnc1CC1CCN(S(=O)(=O)CCC)CC1
-13.2% | COCCN1CC(CO)C2(CCN(C(=O)Cc3ccccc3C)CC2)C1 (centres undefined)
0.0% | Cc1cnc(C(=O)N[C@@H]2CCC[C@@H]2C(=O)N2CCCCC2)cn1
1.1% | CC1=C[C@@H](CNC(=O)c2cnccn2)[C@H](C(C)C)C[C@H]1CC(=O)NCCN1CCOCC1
2.6%[70.6 µM] | Cc1cc(CNC(=O)c2cc(-c3ccccc3)cc3c2OCCN3C)no1
-22.2% | O=C(Cn1nc2c(cc1=O)CCCC2)N1CCN(c2ccc(C(F)(F)F)cn2)CC1
-12.6% | CN(C)Cc1nnc(C2CC(NC(=O)C3(C#N)CCOCC3)C2)n1C (centres undefined)
0.2% | O=S(=O)(c1cc(F)cc(F)c1)N1CCCC1c1nncn1Cc1ccncc1 (centres undefined)
0.6% | COc1ccc(-c2cc3c(=O)n(CCNC(=O)c4ccc(OC)cc4OC)ccn3n2)cc1
-0.8% | COc1cccc(CC(=O)NCC2Cn3cccc3C(=O)N2C)c1 (centres undefined)
-1.4% | O=C(NCc1ccon1)C1CCCN(C2CCN(c3nc4ccccc4o3)CC2)C1 (centres undefined)
6.4% | Cc1nc2ncccn2c1C(=O)N[C@@H]1CCOC[C@H]1Oc1ccccn1
6.5% | COCCOC1CCN(C(=O)c2sc(C)nc2C)CC1
5.0%[70.6 µM] | CC1(C)[C@H](Cc2cc(CO)on2)C[C@@H]1NC(=O)c1cccnc1

# Rewritten field by field: part of the list above.
Molecule: COCCOC1CCN(C(=O)c2sc(C)nc2C)CC1
  hNpr1 antagonist: 6.5%

Molecule: CC1(C)[C@H](Cc2cc(CO)on2)C[C@@H]1NC(=O)c1cccnc1
  hNpr1 antagonist: 5.0%[70.6 µM]

# More compounds follow.
hNpr1 antagonist | compound
5.5% | O=C1NCCN2CC3(CCN(S(=O)(=O)Cc4ccccc4F)CC3)CC12 (centres undefined)
3.1%[70.6 µM] | COc1ncccc1CNC[C@H]1O[C@@H]2C[C@@H](CC(=O)N3CCC(F)(F)C3)O[C@@H]2[C@@H]1O
-13.7% | COc1ccc(NC(=O)Nc2cccn3nc(C)nc23)cc1
-2.1%[70.6 µM] | O=C(O)C[C@@H]1CCN(C(=O)Cc2ccccc2)C[C@@H]1CCN1CCC[C@H]1C(=O)O
-0.1% | Cc1n[nH]c(C)c1CNC(=O)C12CCCC=C1N(C1CCCC1)C(=O)CC2 (centres undefined)
5.5% | Cc1ccc(-n2cc(CN3CCCCC3C(N)=O)c(-c3cccc(C)c3)n2)cc1 (centres undefined)
1.0%[70.6 µM] | O=C(Cc1ccc(Cl)cc1)N[C@H]1[C@H](O)[C@H](O)C[C@@H]1c1cccnc1
-3.9% | CC1CCN(CCNC(=O)c2cc3cn(C(C)C)cc3s2)CC1
1.0%[70.6 µM] | O=C1[C@@H]2C[C@@H](CN2C2CCOCC2)Oc2ccccc2N1Cc1ccccn1
3.9% | CC(=O)NC[C@H]1CCN(C(=O)NCc2ccc(F)cc2)C[C@H]1N(C)C
-11.8% | Cc1ccc(S(=O)(=O)N2CCC(n3cnnc3C(C)C)CC2)c(C)c1
0.4% | Cc1cc(C)n(CCC(=O)NCC2CCN(c3cc(-c4ccc(F)cc4)[nH]n3)CC2)n1
-17.7% | CSc1ccc(NC2=N[C@H]3[C@@H](O)[C@H](O)C[C@H](C(=O)NCCN4CCOCC4)[C@H]3S2)cc1
-1.2% | Cc1cccc(CNC(=O)c2cc(NC(=O)C(C)C)cc3nc(C)ccc23)c1
1.1% | CCC(=O)N1CCC(c2ncc(C)n2Cc2ccccc2)C1 (centres undefined)
10.8% | Cc1cc(C(=O)N2CCCC(Cc3noc(-c4cnccn4)n3)C2)n[nH]1 (centres undefined)
7.2% | CCc1nnc(CN2CCC(N3CCCC(C(=O)NCc4ccccn4)C3)CC2)o1 (centres undefined)
-19.5% | CN(C)c1ccc(C(=O)N[C@H]2C[C@@H](c3nc(-c4ccc5c(c4)OCO5)no3)N(C)C2)cc1
-22.8% | CN1c2cc(C(=O)Nc3ccc(Cl)c(Cl)c3)ccc2C(=O)N2CCCCC21 (centres undefined)
3.2% | CC(=O)NCC(=O)N1C[C@@H](COCC2CC2)[C@H](c2ccncc2)C1
1.2% | COc1ccc(CC(=O)N2[C@@H]3CC[C@H]2CC(NC(=O)c2cnc(C)cn2)C3)cc1Cl (some centres undefined)
-0.3%[70.6 µM] | Cn1cc(CC(=O)N2CCCc3ncc(C(=O)NCC4CCCO4)cc32)c2ccccc21 (centres undefined)
1.4% | COc1ccc2c(C)c(C(=O)N(C)Cc3csc(C(C)C)n3)oc2c1
1.5% | CCCCn1nc(CCOC)nc1-c1ccc(C(=O)N2CCOCC2)cc1
-21.1%[70.6 µM] | CC(C)Oc1cccc(-c2n[nH]c3c2CC(=O)N(CCOc2ccccc2)C3)c1
-15.4% | Cc1ccc(C2=NC3(CCN(C(=O)c4ccc(N(C)C)cc4)CC3)ON2)cc1
? | Cc1ccc(C(=O)N[C@H]2CO[C@H]3[C@@H]2OC[C@@H]3Nc2nccc(-c3ccc(-c4ccccc4)cc3)n2)cc1
1.9% | COc1cccc(F)c1C(=O)N1CC(=O)N(c2ccc(Cl)cc2)CC1C (centres undefined)
2.2% | COc1ccc(C(=O)NCC(=O)N2CCCCCNC(=O)CC2c2ccccc2)cn1 (centres undefined)
5.2%[70.6 µM] | CN1C(=O)CO[C@H](c2ccc(NC(=O)c3cccc(C#N)c3)cc2)[C@H]1CO
-4.8% | O=C(NCc1ccccc1F)c1ccc2c(c1)CN(Cc1cc(F)c(F)c(F)c1)CCO2
-1.7% | Cc1nc(-c2ccccc2)n(Cc2cc(F)cc(F)c2)c(=O)c1CCO
? | CC(=O)Nc1cccc(-c2cnc3n[nH]c(-c4sccc4C)c3n2)c1
1.8% | CCN(CC)C(=O)c1cc2c(s1)CCC(C(=O)NCc1cccnc1)C2 (centres undefined)
-22.0%[70.6 µM] | CC(C)CNC(=O)c1ccc2c(c1)NC(C)(CNc1ccccc1)CO2 (centres undefined)
1.3%[70.6 µM] | CC1(COCC2CC2)COc2ccc(C(=O)N3CCOCC3c3cccc(F)c3)cc2N1 (centres undefined)
-17.5%[70.6 µM] | O=c1c2nc(Nc3ccc(C(F)(F)F)cc3)ccc2ncn1Cc1ccccn1
-8.2% | CC1(c2ccccc2)N(Cc2ccc(O)cc2)C(=O)OC12CCN(C(=O)c1cnccn1)CC2 (centres undefined)
0.7% | Cc1ncoc1C(=O)N1CCCCCCNC(=O)CC1
0.8%[70.6 µM] | CN1C[C@H](NCc2nccn2C)CCC[C@@H](C(=O)NC2CCOCC2)CC1=O
-0.3% | CC(C)c1nccn1Cc1cc(C(=O)NCc2cc(C(C)(C)C)n[nH]2)n[nH]1
-1.0% | COc1ccc(C(=O)N2CCC3(CC2)CC(Cc2nc(-c4cnccn4)no2)CCO3)c(OC)n1 (centres undefined)
10µM* | C[S+](=O)([O-])CCn1ncc2cc(OCC3CCN(C(=O)OC4CCCC4)CC3)ccc21
5.0% | COc1ccc(CNC(=O)N2CCn3nnc(CCC(=O)N4CCOCC4)c3C2)cc1
3.5% | Cn1nccc1C(=O)N[C@@H]1CN(c2ncccn2)C[C@H]1CO
-13.6% | O=C1CC2(CCN(Cc3ccncc3)CC2)Oc2ccccc2N1c1ccccc1
35.5µM* | CC1(C(=O)NCc2ccc3c(c2)OCO3)CCc2cnc(NCc3ccccc3)nc21 (centres undefined)
-1.7% | COCc1cc(C[C@H]2CNCC[C@H]2CC(=O)N2CCN(c3ccccc3OC)CC2)no1
9.0% | CCCCS(=O)(=O)N1CCCC(c2[nH]ccc2C(=O)NC)C1 (centres undefined)
2.9% | CC1Oc2ccc(NC(=O)C3CCCC3)cc2CN(Cc2ccccc2F)C1=O (centres undefined)
-3.5% | COc1cccc(CC(=O)N2CCOCCNC(=O)[C@@H]3CCC[C@@H]32)c1
2.1% | Cc1ccccc1-n1nc(-c2c(C)nc3c(OCC(=O)OC(C)(C)C)cccn3c2=O)cc1C
-7.8% | COc1cccc(S(=O)(=O)N2CCCN(C(=O)C3CC3)c3ccccc32)c1
0.0% | CCc1noc([C@@H]2CC(F)(F)CN2C(=O)COc2ccc(F)cc2)n1
12.6µM* | Cc1cc(=O)n(CC(=O)Nc2ccc(Cl)cc2F)c(N(C)Cc2ccccc2)n1
-18.6%[70.6 µM] | Cc1cc(-c2cnc3n[nH]c(-c4ccc5c(c4)OCO5)c3n2)ccn1
-14.7% | Cc1cccc(CNC(=O)Cc2ccc(N(Cc3ccc(F)cc3)C(=O)c3ccco3)cc2)c1
4.2% | COCCc1noc(-c2ccccc2OC2CN(C(=O)c3ccccc3OC)C2)n1
6.9%[70.6 µM] | COc1ccc(NC(=O)c2ccc3c(c2)OCCN(Cc2ncccn2)C3)cc1F
4.4%[70.6 µM] | CC(C)N1C(=O)CO[C@H](c2ccc(NC(=O)c3ccccc3)cc2)[C@H]1CO

# Looked up above:
# hNpr1 antagonist with Cc1cccc(CNC(=O)Cc2ccc(N(Cc3ccc(F)cc3)C(=O)c3ccco3)cc2)c1 stands at -14.7%
# hNpr1 antagonist with CC1(C(=O)NCc2ccc3c(c2)OCO3)CCc2cnc(NCc3ccccc3)nc21 (centres undefined) stands at 35.5µM*
# hNpr1 antagonist with CCc1noc([C@@H]2CC(F)(F)CN2C(=O)COc2ccc(F)cc2)n1 stands at 0.0%
# hNpr1 antagonist with COCCc1noc(-c2ccccc2OC2CN(C(=O)c3ccccc3OC)C2)n1 stands at 4.2%
# hNpr1 antagonist with COCc1cc(C[C@H]2CNCC[C@H]2CC(=O)N2CCN(c3ccccc3OC)CC2)no1 stands at -1.7%
# hNpr1 antagonist with COc1ccc(NC(=O)c2ccc3c(c2)OCCN(Cc2ncccn2)C3)cc1F stands at 6.9%[70.6 µM]
# hNpr1 antagonist with CC1Oc2ccc(NC(=O)C3CCCC3)cc2CN(Cc2ccccc2F)C1=O (centres undefined) stands at 2.9%

# The listing continues.
hNpr1 antagonist | compound
0.0% | O=C(c1cccnc1)N1CCC2(CC1)C(=NC1CCCCC1)NC(=O)N2c1cccnc1
11.2µM* | COc1nccc(N2CCC(CC(=O)N(C)CCCc3c(C)nn(C)c3C)CC2)n1
8.5% | Cc1ccc(-c2ccc3nnc(CNC(=O)C4(c5ccccc5)CC4)n3n2)cc1
8.3% | Cc1c(CN2CCC(c3nnc(CN(C)C)n3C)CC2)cc(C#N)n1C
2.6% | CN1CCCC2(CCN(C(=O)Nc3ccccc3-c3ccccc3)C2)C1=O (centres undefined)
-0.5% | Cc1ccccc1CC(=O)N1CCN(C(=O)c2nnn3c2COC(c2ccccc2)C3)CC1 (centres undefined)
-9.8%[70.6 µM] | CNC(=O)c1ccc2c(c1)OCCN(c1cccc(OC(F)(F)F)c1)C2
-28.1% | CCOc1ccc(C(=O)N[C@H]2CC[C@H]2NC2CCOCC2)cc1Cl
-13.8% | CCCc1sc(NC(=O)CC[C@H]2NC(=O)c3ccccc3NC2=O)nc1C(=O)OC
-7.4% | COCCN1CCCCCC(O)c2cc(C(=O)NCc3ccc(C)o3)ccc21 (centres undefined)
-7.3% | Cc1cccc(CNC(=O)c2ccc3c(c2)N(C)C2CCCN2C3=O)c1 (centres undefined)
5.2% | O=C(NCc1cc(F)ccc1F)C1CCN(c2cn[nH]c(=O)c2)C1 (centres undefined)
-3.0% | Cn1cc([C@@H](NC(=O)c2ccc3c(c2)OCC(=O)N3)C2CC(O)C2)cn1 (some centres undefined)
1.8% | O=C(c1ccc(C(F)(F)F)cc1)N1CCCC(c2nn(-c3ccc(F)cc3)c(=O)[nH]2)C1 (centres undefined)
11.4% | CN(C)[C@@H]1CN(C(=O)C2CC2)CC[C@@H]1CO
19.9% | Cc1cn2nc(C(=O)N3CCC(NC(=O)c4nccc5ccccc45)CC3)cc2c(=O)[nH]1
3.4% | COc1cccc(C(O)CNC(=O)C2CCN(C(=O)C3CCC3)CC2)c1 (centres undefined)
-13.2% | O=C(NC1CCN(c2cc(-c3cccs3)[nH]n2)C1)c1cc2ccccc2[nH]1 (centres undefined)
-6.4% | Cn1nc2n(c1=O)CCN(C(=O)c1ccc(F)cc1F)CC2
0.0% | Cc1ccc(-n2c(C3CCN(C(=O)Cc4cccc(C)c4)CC3)n[nH]c2=O)cc1
7.0% | Cc1nc(C)c(C(=O)N2CCCC(C(=O)NCc3ccccc3)CCNC(=O)CC2)s1 (centres undefined)
2.2% | CCOC(=O)C1=CN(CC(=O)N(C)c2cccc(C)c2)S(=O)(=O)N=C1C
7.3% | Cc1cccn2cc(C(=O)N3CCC4(CCCN(CC5CCC5)C4=O)C3)nc12 (centres undefined)
0.9% | Cn1cnc(S(=O)(=O)N2CC[C@H]3C(=O)NCCCCCCN(Cc4ccncc4)[C@@H]3C2)c1
4.7% | CCC1(C(=O)NCc2cccc(C(F)(F)F)c2)CCCCC(=O)N1 (centres undefined)
0.5%[70.6 µM] | O=C(NC[C@H]1O[C@@H](CO)[C@@H](O)[C@H]1N1CCOCC1)c1ccc(F)c(Cl)c1
-8.0%[70.6 µM] | COc1ccc(Nc2nc(-c3c(C)noc3C)cc3cc(CO)oc23)cc1OC
? | COCCN1C(=O)c2ccccc2C(C(=O)Nc2cc(C)ccc2OC)C12CCCCC2 (centres undefined)
2.4% | CN1CCC(N2CCC(CN(Cc3ccncc3)C(=O)c3cnc[nH]3)CC2)CC1
